RecA intein inh – blocks M. tuberculosis RecA intein splicing | cell-free RecA intein splicing, fluorescence | P9WHJ3 | inhibition, %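 (about 9 µM by stock and volumes)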 | 0.75% of 290,000 active | AID 2221; in the data active = inhibition above about 30%; inconclusive = no clear call, values can overlap the other calls;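 also: 0% = vehicle wells and 100% = reference inhibitor control wells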
Target sequence (P9WHJ3 whole entry, looked up): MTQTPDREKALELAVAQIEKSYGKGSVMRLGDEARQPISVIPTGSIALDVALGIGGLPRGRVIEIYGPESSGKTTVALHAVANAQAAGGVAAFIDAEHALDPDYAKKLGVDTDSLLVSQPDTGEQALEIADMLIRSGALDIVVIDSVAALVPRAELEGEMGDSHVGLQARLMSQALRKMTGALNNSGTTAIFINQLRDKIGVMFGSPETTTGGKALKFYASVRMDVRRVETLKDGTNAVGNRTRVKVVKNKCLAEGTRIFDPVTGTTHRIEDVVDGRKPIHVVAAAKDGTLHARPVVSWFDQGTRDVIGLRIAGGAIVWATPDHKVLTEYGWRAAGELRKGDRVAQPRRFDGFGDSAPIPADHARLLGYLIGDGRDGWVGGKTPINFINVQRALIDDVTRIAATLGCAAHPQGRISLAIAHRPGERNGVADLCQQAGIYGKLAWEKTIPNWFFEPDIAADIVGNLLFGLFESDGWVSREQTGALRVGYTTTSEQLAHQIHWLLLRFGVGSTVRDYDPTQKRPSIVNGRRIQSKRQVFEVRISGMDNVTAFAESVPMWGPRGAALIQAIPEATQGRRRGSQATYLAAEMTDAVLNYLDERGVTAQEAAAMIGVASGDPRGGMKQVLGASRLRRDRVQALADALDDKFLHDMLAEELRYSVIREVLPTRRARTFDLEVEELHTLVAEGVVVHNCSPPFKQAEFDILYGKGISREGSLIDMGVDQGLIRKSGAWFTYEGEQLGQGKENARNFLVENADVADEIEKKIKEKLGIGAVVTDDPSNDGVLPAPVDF
YopH inh – YopH (Yersinia) phosphatase inhibition. fluorescence Ex485/Em525. inhibition, %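 (about 10 µM by stock and volumes)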. 0.16% of 140,000 active;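 active = inhibition of 50% or more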;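 also: controls were vehicle for no effect and minimum signal wells for full effect; inactives centre near -20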
Mtb growth – M. tuberculosis H37Rv growth inhibitors, H37Rv strain (AID 1626). 0.95% of 220,000 active. M. tuberculosis H37Rv growth inhibition; higher % means a stronger effect. inhibition, % at 10 µM, or IC50 in µM where a hit was titrated;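 active = confirmed in a dose series; inconclusive = inhibition above 80% but not taken into the dose series; inactive = below 80% or under 30% at every dose of the series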;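 also: bacteria incubated seven days before Alamar blue readout; 0% = bacteria only wells and 100% = bacteria with antibiotic wells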
Arbovirus anti – antivirals against arbovirus infection; arbovirus infection cell-based antiviral screen; inhibition, % at 10 µM; 0.37% of 200,000 active; AID 1251;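 active = inhibition from about 30%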;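 also: bluetongue infection of BSR cells; cell survival read as ATP light after 72 h; 0% = infected wells without compound and 100% = uninfected wells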
Mtb bLac sens – beta-lactam sensitization of Mtb H37Rv. inhibition, % at 25 µM. M. tuberculosis H37Rv growth with meropenem, percent inhibition; hits of this screen are not shown here. 0.27% of 330,000 active. AID 434955;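 active = about 74% or more and at least 40 points above the plate without the antibiotic, then above 30% in a dose series; inconclusive = first-round hits that could not be retested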;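 also: growth measured after seven days incubation then overnight dye step; 0% = bacteria only wells and 100% = bacteria with antibiotic; twin plates without the antibiotic show which effects depend on it; some results filed as inactive read as strong as hits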
Arbovirus anti repeat – recorded beside Arbovirus anti, whose call it bears; inhibition, %; measured here: 10K subset replicate screen; many hits read low in the repeat;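 first of two repeat runs on a subset; 0% = infected and 100% = uninfected wells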
Active calls of the source: *; ? = inconclusive; · = no result given. Only part of the results is shown; count on the stated rates, not on these rows.

SMILES	RecA intein inh	YopH inh	Mtb growth	Arbovirus anti	Mtb bLac sens	others
Cc1ccc(CCCOC(=O)C[N+]2(C)CCCC2)cc1	-0.2	-21.4	-4.3%	3.6	-8.2
O=C(CSc1cc(Cl)ccc1Cl)NC1CCCC1	0.8	·	·	·	-3.9
COc1cccc(CN(CC(=O)NCC2CCCO2)C(=O)CCC(=O)Nc2cc(C)on2)c1 (centres undefined)	0.8	-49.9	-12.6%	2.4	-4.2
CCOc1ccc(C(=O)CSc2nnc(N)s2)cc1	0.0	-6.7	0.5%	6.0	0.1
Cc1sc2nc(CN3CCOCC3)nc(NS(=O)(=O)c3ccccc3)c2c1C	-1.5	-28.0	-8.9%	-1.1	-9.7
COc1ccc(Cc2nnc(SCc3c(C)noc3C)n2C2CCCCC2)cc1OC	2.6	2.7	-8.4%	-18.0	1.0
COC(=O)N/N=C\c1ccc(-c2cc(Cl)c(Cl)cc2Cl)o1	5.9	-8.3	-5.4%	-3.5	3.5
Cc1nn(C)cc1-c1n[nH]c(=S)n1-c1ccc(F)cc1	-2.8	-10.7	-3.9%	-1.1	-2.6
Cc1ccc(S(=O)(=O)C2(C(=O)O)CCCC2)cc1C	1.0	-34.7	-1.0%	8.8	2.6
CC(C)c1nc(CNC(=O)c2ccc(OC3CCN(Cc4ccccn4)CC3)cc2)cs1	-1.6	·	·	·	2.7
CC(C)C(=O)Nc1nc(-c2ccc(S(=O)(=O)N3CCOCC3)cc2)cs1	-0.4	·	·	·	2.6
COC(=O)c1ccc(COC(=O)c2ccc(S(=O)(=O)N3CCC(C)CC3)cc2)o1	2.8	-15.8	6.3%	-0.7	48.5

The last 5 entries of the section before are carried over, then new ones follow:
SMILES	RecA intein inh	YopH inh	Mtb growth	Arbovirus anti	Mtb bLac sens	others
Cc1nn(C)cc1-c1n[nH]c(=S)n1-c1ccc(F)cc1	-2.8	-10.7	-3.9%	-1.1	-2.6
Cc1ccc(S(=O)(=O)C2(C(=O)O)CCCC2)cc1C	1.0	-34.7	-1.0%	8.8	2.6
CC(C)c1nc(CNC(=O)c2ccc(OC3CCN(Cc4ccccn4)CC3)cc2)cs1	-1.6	·	·	·	2.7
CC(C)C(=O)Nc1nc(-c2ccc(S(=O)(=O)N3CCOCC3)cc2)cs1	-0.4	·	·	·	2.6
COC(=O)c1ccc(COC(=O)c2ccc(S(=O)(=O)N3CCC(C)CC3)cc2)o1	2.8	-15.8	6.3%	-0.7	48.5
CCC1=C(OC(=O)N(CC)CC)N2C(=O)OC(=NCCOC)[C@]2(Cc2ccccc2)[C@H]2C1=CC[C@H]1C(=O)N(CC(=O)OC)C(=O)[C@H]12	0.7	·	-4.1%	·	-7.0
COc1cc2c(cc1OC)CN(CC(=O)Nc1ccc(C)cc1)CC2	-2.9	7.4	-4.9%	6.0	·
CC(C)CNS(=O)(=O)c1cc(C(=O)N2CC(C)OC(C)C2)c(Cl)cc1Cl (centres undefined)	-0.7	-8.4	-6.1%	-0.9	4.5
O=C(NC(=S)Nn1cnnc1)c1cccc(Br)c1	-8.5	-11.5	-4.7%	1.0	-1.4
CC1C(=O)Nc2ccccc2N1C(=O)c1ccc(F)cc1F (centres undefined)	-0.6	·	·	·	-8.4
CCOC(=O)CNC(=O)CSc1nc2sc(C)c(C)c2c(=O)n1C	1.4	-54.9	-18.5%	2.5	-25.3	Arbovirus anti repeat=4.0
CCn1cc(C(=O)NCC2COc3ccccc3O2)c2cc(OC)c(OC)cc2c1=O (centres undefined)	-1.2	-21.4	0.4%	12.8	0.6	Arbovirus anti repeat=-5.5
O=C(NCc1cccnc1)C(=O)Nc1nc2ccccc2s1	-0.8	·	6.5%	-2.4	-2.5
COc1cccc(CN(C)CC(O)COC(c2ccccc2)c2ccccc2C)c1 (centres undefined)	7.4	·	·	·	91.7
COc1ccc2ccccc2c1/C=N/n1cnnc1	-1.0	·	·	·	-3.7
CNCC(O)c1cc(F)c(OCc2ccccc2)c(OCc2ccccc2)c1F (centres undefined)	3.9	·	0.7%	·	80.7
C[C@@H]1NC(=O)/C(=C\c2ccccc2Cl)NC1=O	0.5	·	4.1%	·	-3.2

Next section; the last three above are carried over.
SMILES	RecA intein inh	YopH inh	Mtb growth	Arbovirus anti	Mtb bLac sens	others
COc1ccc2ccccc2c1/C=N/n1cnnc1	-1.0	·	·	·	-3.7
CNCC(O)c1cc(F)c(OCc2ccccc2)c(OCc2ccccc2)c1F (centres undefined)	3.9	·	0.7%	·	80.7
C[C@@H]1NC(=O)/C(=C\c2ccccc2Cl)NC1=O	0.5	·	4.1%	·	-3.2
COc1cc(NC(=O)c2ccccc2-c2ccccc2)cc(OC)c1	6.4	-26.9	9.5%	-4.7	41.7
CC(=O)NCCN1C(=O)C2C3c4ccccc4C(c4ccccc43)C2C1=O (centres undefined)	-0.5	-13.6	-0.8%	12.7	-19.7
Cc1cc(C)c2nc(SCC(=O)Nc3ccc(S(=O)(=O)N4CCCC4)cc3)c(C)cc2c1	3.2	-36.1	-0.4%	5.3	-3.7
O=C(Nc1nnc(-c2ccccc2F)s1)Nc1ccccc1F	·	·	-8.6%	-1.0	-3.6
Cc1ccccc1NC(=O)c1ccc(C)c(S(=O)(=O)NCc2cccnc2)c1	2.9	·	·	·	-10.4
O=C(NCCNC(=O)c1ccccc1Br)c1cccnc1	1.2	·	·	·	-2.9
Cc1cc(C(=O)Nc2cc(C(C)(C)C)on2)c(C)o1	1.6	·	-10.8%	·	3.3
CCOC(=O)c1c(-c2cccs2)csc1NC(=O)CNCCN1CCOCC1	·	3.3	35.5%	-0.2	·
CCOC(=O)C1CCCN(Cc2cc(=O)oc3cc(C)ccc23)C1 (centres undefined)	1.4	·	7.3%	4.5	10.1
O=C(C1CCC(=O)N(C2CCCC2)C1)N1CCN(c2ccccc2Cl)CC1 (centres undefined)	0.5	·	·	·	3.6
Cc1cccc(C(=O)Nc2cc(=O)n(C)c(=O)n2C)c1	1.5	-8.9	-6.0%	8.0	1.0	Arbovirus anti repeat=6.3
COc1ccc(OCC(=O)Nc2ccc3c(c2)n(C)c(=O)n3C)cc1	0.9	·	·	·	2.9
Nc1ccccc1C#CC(=O)c1ccccc1	8.5	·	·	·	100.3
NC(=O)c1nsc(C(=O)N(Cc2ccccc2F)C(C(=O)NCC2CCCO2)c2ccc(F)cc2)c1N (centres undefined)	-6.6	·	·	·	4.8
O=C(/C=C/c1ccco1)Nc1sc2c(c1C(=O)O)CCC2	3.5	-38.5	-12.5%	73.4*	8.0
CCOC(=O)c1ccc(-c2c(C(=O)OCC)oc3cc(O)c(CC)cc3c2=O)o1	2.3	-7.0	12.8%	1.5	-8.4
CCOC(=O)c1[nH]c2cc(OC)c(OC)cc2c1NC(=O)c1ccc2c(c1)OCO2	-4.4	-53.2	-4.8%	-3.0	3.0	Arbovirus anti repeat=0.2
CCN(Cc1ccccc1)S(=O)(=O)c1csc(C(N)=O)c1	-2.2	·	·	·	-1.8
CN1CCCN(C(=O)/C=C/c2ccc(Cl)cc2Cl)CC1	-0.6	·	2.1%	-4.0	8.4
O=C(O)c1cc(-c2cc3ccccc3o2)nn1-c1ccccc1	7.7	·	-5.7%	20.6	-0.9
COc1ccccc1Nc1nc(N)nc(CSc2nnc(C)s2)n1	3.2	-16.4	-10.9%	6.6	-9.4
O=C(NCc1nc2ccccc2[nH]1)C1=C[C@@H](c2ccc(Br)cc2)C[C@@H](OCc2ccc(CO)cc2)O1	6.3	·	23.9%	-10.1	89.8
Cc1sc(C(C2C(=O)CC(C)(C)CC2=O)C2C(=O)CC(C)(C)CC2=O)cc1[N+](=O)[O-]	3.4	·	-9.7%	-4.1	2.4
COc1cc2ccccc2cc1-c1nnc(COc2ccccc2)o1	-0.2	-0.1	-4.1%	3.7	0.9	Arbovirus anti repeat=-1.0
O=C(Nc1ccn(Cc2ccccc2)n1)c1cccc(F)c1	1.9	·	13.8%	-18.6	·
CCCCc1c(C)nc2ccc(Br)cc2c1SCCC#N	3.0	-10.2	6.3%	-29.2	·
Nc1c(-c2ccc(Cl)cc2)nnn1-c1ccccc1	·	-26.9	-6.0%	8.2	0.0
O=C(CSc1ccc(Cl)cc1)Nc1cccc(-c2nc3ncccc3o2)c1	0.4	-10.2	·	4.1	1.8
COc1cccc(CNc2ccc(C(=O)O)cc2)c1OCc1ccccc1	-0.8	·	-6.5%	7.7	2.1
COc1ccc(/C=N/NC(=O)c2ccc(N(C)S(=O)(=O)c3ccccc3)cc2)c(OC)c1	2.4	·	3.9%	11.0	3.4
CCOC(=O)c1ccc(-n2c(CN3CCC(O)CC3)nc3ccc([N+](=O)[O-])cc3c2=O)cc1	-3.3	·	68.1%	4.0	31.2
COC(=O)CC1C(=O)NCCN1C(=O)c1ccc(S(=O)(=O)N2CCOCC2)cc1 (centres undefined)	0.9	·	1.6%	3.1	-8.7
O=C(CNC(=S)NC(=O)c1ccc(F)cc1)c1ccccc1	-0.5	-24.5	0.6%	-3.4	2.1
O=C(Nc1ccc(Cl)cc1)c1ccc2c(c1)S(=O)(=O)c1ccccc1C2=O	-0.9	·	-2.9%	·	-2.9
CC(C)C1NC2(C(=O)c3ccccc3C2=O)C2C(=O)N(c3ccc(F)cc3)C(=O)C12 (centres undefined)	-1.0	-55.7	-2.4%	-2.4	2.3
O=C(O)Cc1csc(NC(=O)c2ccco2)n1	0.7	-5.3	-1.0%	-3.9	15.5
CCn1cc(C(=O)NCCc2ccccc2)c(=O)c2cc(S(=O)(=O)N3CCCC3)ccc21	1.1	·	?	3.3	99.6
CC(N1CCOC1=O)S(=O)(=O)c1ccccc1 (centres undefined)	-1.3	-10.0	6.9%	6.8	-1.8
CN(Cc1ccccc1)/C(=N/O)c1cccc(Cl)c1	3.8	·	·	·	3.6
CC(C)OCCCNC(=O)C1CC(=O)N(CCc2ccccc2)C1 (centres undefined)	-1.6	·	·	·	3.6
COc1cccc(C2=NN(C(=O)c3ccco3)C(O)(C(F)(F)F)C2)c1 (centres undefined)	8.6	·	3.1%	-20.9	10.6
COc1cccc2nc3cc(C)c(C)cc3nc12	16.4	·	9.1%	·	-1.7
CS(=O)(=O)NCCNc1cc(Cl)ccc1[N+](=O)[O-]	0.6	·	3.9%	0.0	-2.6
COCCN1C(=O)/C(=C2/C(=O)N(CC(=O)Nc3ccccc3Cl)c3ccccc32)SC1=S	-3.1	·	·	·	12.7
O=C(CNC(=O)c1ccc(Br)o1)NC1CCCCC1	1.6	·	·	·	-16.5
Oc1ccc(N=Nc2ccc3c(c2)OCCO3)c2ncccc12	-1.8	·	41.0%	·	80.3
Nc1cc(N)nc(SCC(=O)NNC(=O)c2ccc(Cl)cc2)n1	-6.4	-9.3	-4.7%	4.1	-0.9
Cc1nnc(SCCCn2c(N3CCN(c4ccccc4)CC3)nc3c2c(=O)[nH]c(=O)n3C)s1	-0.9	-28.6	-3.0%	2.2	-7.3
O=C(Cc1ccc(Cl)cc1)Nc1ccc(N2CCN(C(=O)c3ccco3)CC2)cc1	1.8	-11.3	11.4%	-11.9	95.1
CC(C)[C@H](NC(=O)N1CCn2c1nc1ccccc12)C(=O)N[C@@H](C(=O)O)c1ccccc1	-0.1	·	·	·	0.2
CC(C)CN(CCNC(=O)CN1C(=O)COc2ccc(S(=O)(=O)N3CCC(C)CC3)cc21)CC(C)C	0.0	·	·	·	-8.5
Cc1ccc(C(=O)NCCCNC(=O)c2ccc(C)nc2)cc1	0.1	·	·	·	-5.6
Cc1cccc(NC(=O)CSc2nnc(CN3CCOCC3)n2C)c1C	-4.3	·	-1.9%	4.4	-3.6
CC(=O)Nc1ccc(C(=O)Nc2nc(-c3ccccn3)cs2)cc1	-1.5	·	0.2%	34.5*	74.9
COc1ccc(Nc2c(-c3ccco3)nc3cccc(C)n23)cc1	3.6	·	-5.4%	2.5	-0.3
CC1(C)C2CCC1(CS(=O)(=O)NC1CCCC1)C(=O)C2 (centres undefined)	-1.8	·	-0.3%	5.3	-7.8
Cc1ccc(C(=O)CSc2ccccn2)cc1	1.7	-7.4	-3.3%	-6.7	72.5
CCN(CC)CCCn1c2c(c(SCC(=O)Nc3nc4ccccc4s3)nc1=O)CCC2	2.9	·	·	·	-9.6
O=C1c2cccc(OCC(=O)N3CCCc4ccccc43)c2CCN1Cc1cccnc1	-0.9	·	1.4%	2.1	-2.8
C/C(=N\NC(=O)c1nc2ccccn2c1C)c1cccc([N+](=O)[O-])c1	-0.4	·	2.7%	3.1	-4.7
CC(=O)c1cccc(OCc2cc(C(=O)N(C)CCc3ccccn3)no2)c1	0.8	·	·	·	-5.3
O=C(NCC1OCCCN1S(=O)(=O)c1cc(F)ccc1F)C(=O)NC1CCCC1 (centres undefined)	-0.1	·	·	·	-10.1
